# Tg IFNy HTS = inhibitors of Toxoplasma gondii growth with IFN-gamma; hit rate 3.8% among 69,000; AID 1259416; activity change, negative = inhibition, %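 (about 20 µM by stock and volumes)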; Toxoplasma gondii growth in IFN-gamma-treated host cells; hits give low values; reference of the scale not given here;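 active = below -70%; inconclusive = fit judged invalid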;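 also: host cells are HeLa cells infected with Toxoplasma gondii; parasite growth read as luciferase light; one replicate is shown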
# * = called active by the depositor; i = inactive; ? = inconclusive; & = joins results of further samples; ! = not active in a repeat. Some of the compounds tested. The share of hits here may be higher or lower than overall.
SMILES,Tg IFNy HTS
Cc1ccccc1N1CC2(CCN(S(=O)(=O)C3CC3)C2)CC1=O (stereo not given),4
O=C(c1cc2n(n1)CCN(C(=O)c1cccc3cnccc13)C2)N1CCCC1,-3
COc1ccc(NC(=O)Nc2ccc(-c3nc(-c4ccccc4)co3)cc2)cc1OC,77
CSc1ccc(C2NC(=NCc3ccco3)Nc3nc(C)cc(=O)n32)cc1 (stereo not given),-42
Cc1ccc(Cl)cc1N1CCN(S(=O)(=O)c2ccc3[nH]c(=O)[nH]c3c2)CC1,12
CC[C@@H]([C@H](C)O)n1ncn(-c2ccc(N3CCN(c4ccc(OC[C@@H]5CO[C@@](Cn6cncn6)(c6ccc(F)cc6F)C5)cc4)CC3)cc2)c1=O,-67
C=CCOCC1c2c(ncn2C(C)C)CCN1C(=O)CC (stereo not given),-7
c1ccc(-c2ncc(CN3CCCn4cncc4C3)cn2)nc1,-61
O=S(=O)(c1ccccc1)N1CC2CCC1C2Oc1cccnc1 (stereo not given),-21
COc1ccc(-c2nc3c(s2)CN(S(=O)(=O)c2cccs2)CC3)cc1,-94*
C[C@H]1CN([C@@H](C)CO)C(=O)Cc2cc(NS(=O)(=O)c3ccc(F)cc3)ccc2O[C@@H]1CN(C)Cc1ccncc1,-28
Cc1nc2ccccc2n1C(C)C(=O)O (stereo not given),12
CC1=C(C(=O)NCc2ccccc2C)C2(CCN(S(C)(=O)=O)CC2)OC1=O,7
CN(Cc1ccc2nonc2c1)C(=O)c1cccc(CC2CCNCC2)c1,2
COc1ccc2c(c1)NC1(CCN(S(=O)(=O)c3cccc(F)c3)CC1)c1cccn1-2,9
CO[C@H](CN(C)S(=O)(=O)c1cn(C)cn1)[C@@H](C)CN(C(=O)Nc1ccc(C(F)(F)F)cc1)[C@@H](C)CO,-32
COCC(=O)N1C[C@H]2COC[C@@H](CC(=O)N3CCCC3)[C@H]2C1,-38
COCC(=O)N1CC[C@@H]2[C@H]1c1cc(-c3cccc(F)c3)ccc1N(C)[C@H]2CO,-52
CN1CCN(C(=O)c2cc3c(c(-c4cccc(C#CCC5CCCC5)c4)n2)[C@H](CCO)N(S(=O)C(C)(C)C)C3)CC1 (stereo not given in full),-54
CC(C)=CC(=O)N1C[C@H](O)[C@@H](N2CCN(C)CC2)C1,-20
O=C1NN(c2ccccc2)C(=S)Nc2ccccc21,89
CC(=O)N1N=C(c2c(-c3ccccc3)c3cc(Br)ccc3[nH]c2=O)CC1c1ccc(F)cc1 (stereo not given),-53
COc1cccc(C(=O)N2CCNCC2C(=O)N2CCN(C)CC2)c1C (stereo not given),2
Cc1ccc([C@@H]2O[C@H](CO)[C@@H](O)[C@H](O)[C@H]2O)cc1Cc1ccc(-c2ccc(F)cc2)s1,23
Cc1cc(C)c(NC(=O)CS(=O)CC(=O)NCCCc2ccccc2)c(C)c1 (stereo not given),4
Cc1oc(-c2ccc(NC(=O)c3cccc(N(C)C)c3)cc2)nc1Cn1cccn1,-86*
COc1ccc(-c2nc(C)c(CCNS(=O)(=O)c3ccc(OC)c(F)c3)s2)cc1,i
N#CCSC1=Nc2ccccc2C2=NC(CC(=O)NCc3cccs3)C(=O)N12 (stereo not given),7
C=CCn1c2c(ccc1=O)CC(NC(=O)N1CCCC1)CC2 (stereo not given),-4
CCCc1nc2cc(NC(=O)c3cc(-c4ccccn4)n[nH]3)ccc2n1C,63
COc1ccc(-c2[nH]ncc2CNC(=O)C2(c3cccc(C)c3)CCOCC2)cc1,1
CN(C)CC(=O)N1C[C@H](Oc2cccnc2)[C@@H]2OCCC[C@@H]21,288
COc1ccc(NC(=O)c2cncc(C)c2)c(NC(=O)C(C)C)c1,68
C[C@@H](NC(=O)C[C@@H]1CC[C@@H]2[C@@H](COc3ccc(NS(=O)(=O)c4ccc(Cl)cc4)cc3C(=O)N2C)O1)c1ccccc1,-20
O=C(O)c1cc2c(ccc3ccccc32)oc1=O,4
O=S1(=O)N=C(N2CCCc3ccccc32)c2ccccc21,-37
CC(=O)Nc1ccc(S(=O)(=O)Nc2cncc(C(=O)NC3CCCCC3)c2)cc1,24
CC(=O)OCC1OC(n2ccc(=O)[nH]c2=O)C(O)C1O (stereo not given),-12
CC(C)Oc1ccc2c(=O)cc(-c3ccccc3)oc2c1,378
Cc1ccc2nc(C)c3c(c2c1)N(c1ccccc1)CC3,-60
O=S(=O)(c1ccc2c(c1)CCCC2)N1CCC2(CC1)NCCN=C2NCc1ccc(Cl)cc1,-58
O=C(Cc1cccnc1)N1[C@@H](CO)[C@H](c2ccccc2)[C@@H]1CNCC1CCC1,-46
C[C@H](CO)N1C[C@H](C)[C@H](CN(C)C(=O)Nc2ccc3c(c2)OCO3)OCc2cn(nn2)CCCC1=O,437
CN1CC2(CCCN(C(=O)c3ncccc3O)C2)OC1=O (stereo not given),-2
CSc1sc(NC(=O)N2CCOCC2)c(-c2ccc(Cl)cc2)c1C#N,48
COc1cccc(-c2ccc3n(c2=O)C[C@H]2N[C@@H]3[C@@H](C(=O)N3CCCCC3)[C@@H]2CO)c1,1
CCCNC(=O)N1[C@H](C#N)[C@H](c2ccccc2C2=CCCCC2)[C@@H]1CO,-70
CCCC(=O)N1CCC2(CC1)CN(Cc1ccc(Cl)cc1)[C@@H](CO)c1[nH]c3cc(OC)ccc3c12,-58
COc1ccc(-c2nc3c(s2)CN(S(=O)(=O)c2ccc(C(C)C)cc2)CC3)cc1,-16
COc1ccc(-c2cc(C(=O)NC3CC3)ccn2)cc1Cl,11
CCOC(=O)c1nnn(-c2nonc2N)c1CSc1nc2ccccc2s1,-8
CC(C)CNc1ccccc1C(=O)N1CCC(C(=O)O)CC1,2
O=C1CC(c2nc3c(s2)CCCC3)c2cc3cn[nH]c3cc2N1 (stereo not given),-24
COc1ccccc1NC(=O)N1[C@@H](C#N)[C@H](c2ccccc2)[C@@H]1CO,14
CC(c1cccc(-c2nccc(CCC(F)(F)F)n2)c1)N1CCCC1 (stereo not given),13
CCN(CC)c1ncnc2c1cnn2CC(=O)Nc1ccc(F)cc1Cl,106
Nc1cc(-c2cn[nH]c2C2CCCN(CCOCc3ccccc3)C2)ccn1 (stereo not given),-26
Fc1cccc(-c2nnn3c2COC(CNCc2nccs2)C3)c1 (stereo not given),0
Cc1nn(C)c2c1S(=O)(=O)N=C(N1CCOCC1)S2,2
COCc1cc(C)nc(OCC(=O)O)c1C#N,-15

# Two records picked at random from the list so far, as already listed:
SMILES,Tg IFNy HTS
Fc1cccc(-c2nnn3c2COC(CNCc2nccs2)C3)c1 (stereo not given),0
CCOC(=O)c1nnn(-c2nonc2N)c1CSc1nc2ccccc2s1,-8

# More compounds
SMILES,Tg IFNy HTS
CC(C)c1nccc(CN2CCN(c3ncnc4ccccc34)CC2)n1,-48
COCC(=O)N1C[C@@H]2OCCN(CCN3CCCC3)[C@H]2C1,-6
CCn1c(=O)[nH]c2cc(Cl)c(Cl)cc21,-84*!
OCC1(CCc2ccccc2)CCN(c2ncnc3[nH]ccc23)CC1,6
Cn1ncc2c(NCc3cc(C(C)(C)C)n[nH]3)nc(C(C)(C)C)nc21,-75*
Cc1noc([C@H]2COC[C@@H]3CN(C(=O)Cc4cccc(F)c4)C[C@@H]32)n1,5
COc1cc(CN2CC3(CCN(S(=O)(=O)c4cn(C)cn4)CC3)c3c(n(C)c4cc(OC)ccc34)[C@@H]2CO)cc(OC)c1,-8
Cc1ccc(NC(=O)C2CC(=O)OC23CCCCC3)cc1C (stereo not given),?
Cc1ccccc1S(=O)(=O)N1CCCCN2[C@H](C1)[C@@H](c1ccc(C#CCN(C)C)cc1)[C@@H]2CO,-47
COc1ccnc(N2CCC(CO)(Cc3cccc(F)c3)CC2)n1,-3
CC(=O)N1[C@H](CO)[C@H](c2ccccc2)C12CN(S(=O)(=O)c1ccccc1)C2,-23
Cc1cc(F)ccc1NC(=O)c1cncc(NS(=O)(=O)c2ccc(Br)cc2)c1,-31
COc1cc2c(cc1OC)C(=S)NC(C)(C)C2,21
CSc1nnc(-c2ccccc2)n1C,31
Cc1noc([C@H]2COC[C@@H]3CN(S(=O)(=O)N(C)C)C[C@@H]32)n1,-3

# An excerpt of these results, field by field.
canonical_smiles: Cc1noc([C@H]2COC[C@@H]3CN(S(=O)(=O)N(C)C)C[C@@H]32)n1
  Tg IFNy HTS: -3
canonical_smiles: COc1cc2c(cc1OC)C(=S)NC(C)(C)C2
  Tg IFNy HTS: 21

# Nothing new here: entries from further up.
SMILES,Tg IFNy HTS
CC(C)c1nccc(CN2CCN(c3ncnc4ccccc34)CC2)n1,-48
COCC(=O)N1C[C@@H]2OCCN(CCN3CCCC3)[C@H]2C1,-6

# The results go on.
SMILES,Tg IFNy HTS
Cc1c(CN2CCCC(c3ccn[nH]3)C2)[nH]c2ccc(F)cc12 (stereo not given),4
O=C(NCc1cccc(F)c1)N1CCCCC1CN1CCOCC1 (stereo not given),-2
CCOC(=O)c1n[nH]c(=S)[nH]c1=O,5
O=C(O)c1cc2n(n1)CCCN(C(=O)CCc1ccc3c(c1)OCO3)C2,1
C[C@@H]1CN([C@@H](C)CO)C(=O)CCCn2nncc2CO[C@@H]1CN(C)S(=O)(=O)c1ccc(Oc2ccccc2)nc1,i
Cc1cnc(N2CCC3C2CCC(=O)N3c2cccnc2)nc1 (stereo not given),95
COCC(=O)N1CCCC(C(=O)NCc2cc(C)ccc2C)C1 (stereo not given),-48
Cn1cc(C(=O)Nc2ccc(N3CCCC3)c3nonc23)c2ccccc2c1=O,4
Nc1ccc2c(C(F)(F)F)cc(=O)oc2c1,32
O=C(CN1CCOCC1)Nc1c(F)c(F)nc(N2CCOCC2)c1F,16
C=CCC(Nc1ccc(OC)cc1)c1ccco1 (stereo not given),39
Cc1cc(C(=O)N2CCCC(N(C)C)CC2)sc1C (stereo not given),8
N#CCSC1=Nc2ccccc2C2=NC(CC(=O)NC3CCCCC3)C(=O)N12 (stereo not given),-2
COCC1(C(=O)N(C)Cc2nonc2C)CCC1,-4
N#C[C@@H]1[C@H](c2ccccc2-c2cccc(F)c2)[C@@H](CO)N1C(=O)CN1CCOCC1,22
CCN1C(=O)[C@@H]2CN(CCOC)C[C@@H]2C12CCN(C(=O)c1ccncn1)CC2,7
CNC(=O)COc1ccc(-c2c(F)cccc2OC)cc1,-39
COc1ccc(NC(=O)N2CC3(C2)CN(C(C)=O)[C@H](CO)c2[nH]c4cc(OC)ccc4c23)cc1,157
Cn1ccc(C(=O)NC2CCC23CCN(C(=O)c2ccoc2)CC3)c1 (stereo not given),17
Cn1nc(-c2ccccc2)cc1C(=O)N1CCCC(c2cc(=O)[nH]cn2)C1 (stereo not given),-9
CN(C)S(=O)(=O)c1ccc(CNC(=O)C(C)(C)n2cnnn2)cc1,11
COC(=O)C[C@@H]1CC[C@@H]2[C@@H](COc3ccc(NC(=O)Nc4c(C)noc4C)cc3C(=O)N2C)O1,20
COC(=O)NC(C(=O)N[C@@H](Cc1ccccc1)C(O)CN(Cc1ccc(-c2ccccn2)cc1)NC(=O)C(NC(=O)OC)C(C)(C)C)C(C)(C)C (stereo not given in full),-7
O=C(Nc1ccccc1-c1ccccc1)n1c(NCc2ccncc2)nc2ccccc21,4
CN1CCN(C)C2(CCN(C(=O)c3ccc(-c4ccn[nH]4)cc3)CC2)C1,-2
Brc1c(NC2=NCCN2)ccc2nccnc12,11&-3&2&-1
COCCN1CCO[C@H]2CN(S(=O)(=O)c3ccccc3)CC[C@@H]2C1,-7
O=C(Cc1ccccc1)Nc1ccc(Cl)cc1,-60
Cc1oc(-c2ccc(C(=O)NC3CCCC3)cc2)nc1CN1CCN(c2ccccc2)CC1,43
CCN(CC)CCCNC(=O)C1=C(C)C(=O)OC12CCN(S(=O)(=O)CC)CC2,6
CCN(CC)C(=O)[C@@H]1C[C@H](N)CN1C(=O)C(=O)N1CCc2ccccc21,2
CC(C)CN1Cc2ccccc2C2(CCN(C(=O)c3ccco3)CC2)C1,11
CO[C@H]1CN(C)C(=O)c2ccc(NC(=O)c3cccc(F)c3)cc2OC[C@H](C)NC[C@H]1C,92
O=C(/C=C/c1ccccc1)NC(NC(=S)Nc1cccc2cccnc12)C(Cl)(Cl)Cl (stereo not given),-36
CC(C)c1cc(C2CCN(C(=O)CCn3nnc4ccccc43)CC2)[nH]n1,6
O=C(CSc1nnc(-c2ccccc2O)o1)Nc1nnc(-c2ccccc2)s1,49
CCOC(=O)c1nc(Nc2cccc(C)c2)c2ccccc2n1,-10
COc1ccc(OC)c(NC(=O)c2nnn(Cc3nc(-c4ccccc4C)oc3C)c2C)c1,180
CCCNC(=O)N(C)C[C@@H]1Oc2cc(C#C[C@H](C)O)ccc2S(=O)(=O)N([C@@H](C)CO)C[C@H]1C,50
COc1ccc(-c2nc(N3CCCC(C)C3)c3ccccc3n2)cc1 (stereo not given),-67
O=c1oc2ccccc2cc1-c1csc(-c2ccc([N+](=O)[O-])cc2)n1,-1
Cc1cc(C)c(C2CC(=O)Nc3[nH]ncc32)cc1Cn1cncn1 (stereo not given),-6
COc1ccccc1CNC(=O)CCC1N=C2c3ccccc3N=C(SCc3ccc(C)cc3)N2C1=O (stereo not given),-3
O=c1c2c3c(sc2[nH]c(=S)n1-c1ccccc1)CN(Cc1ccccc1)CC3,-56

# An excerpt of these results, tab-delimited:
Compound	Tg IFNy HTS
Brc1c(NC2=NCCN2)ccc2nccnc12	11&-3&2&-1
COCCN1CCO[C@H]2CN(S(=O)(=O)c3ccccc3)CC[C@@H]2C1	-7
O=C(Cc1ccccc1)Nc1ccc(Cl)cc1	-60
